ALR H2O2 inh = inhibitors of human ALR sulfhydryl oxidase, primary screen, biochemical, H2O2 detection, HRP-luminol luminescence, single point | 290,000 compounds, 3.8% hits | FAD-linked sulfhydryl oxidase ALR (Homo sapiens), P55789 | inhibition, % (test concentration not listed) | AID 485317, 2010 | purified ALR, DTT oxidation;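 active = mean and each replicate at 75% or more; inconclusive = only one of the two met; inactive = neither met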;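 note: stock transfer was 7.5 nL into about 7.5 µL; 0% = neutral wells and 100% = wells with inactivated enzyme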
Target sequence (P55789 whole entry, looked up): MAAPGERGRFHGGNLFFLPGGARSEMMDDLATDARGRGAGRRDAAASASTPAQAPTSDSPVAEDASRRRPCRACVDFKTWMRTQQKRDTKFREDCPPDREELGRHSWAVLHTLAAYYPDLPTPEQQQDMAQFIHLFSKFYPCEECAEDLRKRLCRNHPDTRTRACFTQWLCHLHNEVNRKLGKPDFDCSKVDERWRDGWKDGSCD
Calb FLC = C. albicans growth inhibition with fluconazole, primary screen, CaCi-2 strain, Alamar Blue fluorescence | C. albicans CaCi-2 (fluconazole-resistant clinical isolate) + fluconazole, 48 h | growth inhibition, % (no concentration beside the values) | 300,000 compounds, 0.57% hits;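 active = most replicates above 75%; inconclusive = exactly half above 75%; inactive = most below 75%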;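 note: all wells also contain fluconazole at 8 µg/ml as a sub-toxic cotreatment; 0% = median of DMSO wells and 100% = median of geldanamycin control wells; wells of about 8 µL received 7.5 nL stock; the first replicate is given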
RanGTP-Imp inh = inhibitors of RanGTP-importin-beta interaction, primary screen, biochemical, FRET, CFP-Ran, YFP-importin-beta, homogeneous. Ran GTPase (GTP-bound) - importin-beta complex. cell-free CFP-Ran/YFP-importin-beta FRET ratio. inhibition, % (no concentration beside the values). 300,000 compounds, 1.1% hits. AID 2216, 2009;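 active = most replicates above 15%; inconclusive = exactly half above 15%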;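 note: 0% = DMSO wells and 100% = Ran loaded with GDP instead of GTP; wells of about 40 µL received 100 nL stock; the first replicate is given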
rRNA inh HTS = reduced GFP signal of wild-type E. coli, primary screen, bacterial rRNA inhibitor project, GFP/RFP fluorescence, OD600, single point | 350,000 compounds, 1.6% hits | GFP signal change (wild-type ribosome), % (concentration not given with the values) | AID 720706, 2013 | E. coli WT GFP vs humanized-ribosome RFP mutants, 24 h; stronger effect = lower value; DMSO median 0, no signal -100;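 active = significant combined selectivity score with lowered wild-type GFP, culture density cut under 30%, mutant RFP and density less affected; inactive = any of these conditions unmet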; note: one replicate is shown; some compounds called inactive have numbers as strong as hits
T cruzi inh = inhibitors of intracellular T. cruzi growth, primary screen, luminescence, NIH3T3 host cells; AID 1885, 2009; inhibition, % (test concentration not listed); 300,000 compounds, 1.4% hits; T. cruzi beta-gal in NIH3T3, 90 h;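 active = mean inhibition across valid replicates above about 55%, limit read from the data; inconclusive = mean below that limit but half or more replicates reach it; inactive = mean below it, under half of replicates reach it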;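 note: signal also drops with host cell toxicity which is not excluded here; 0% = plate median of DMSO wells and 100% = zero luminescence signal; higher percent means less beta-gal luminescence so fewer parasites; stock transfer was 50 nL into about 50 µL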
Beta apoptosis = inhibitors of cytokine-induced beta cell apoptosis, primary screen, luminescence; INS-1E cytokine-induced death, ATP luminescence, 48 h; percent of positive-control rescue, neutral wells zero; protection from apoptosis, % (test concentration not listed); 300,000 compounds, 0.8% hits;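 active = all replicates at 75% or more, or half of them and the mean; inconclusive = half reach 75% but not the mean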;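 note: 0% = cytokine-treated negative control wells and 100% = positive control rescue; higher means more ATP so stronger rescue from cytokine killing; wells of about 40 µL received 100 nL stock; the first replicate is given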
AF4-AF9 inh = inhibitors of AF4 peptide binding to AF9, primary screen, biochemical, AlphaScreen, biotin-AF4 peptide, FLAG-AF9, single point. Protein AF-9 (Homo sapiens), P42568. inhibition, % at 10 µM. 350,000 compounds, 0.47% hits. AID 651704, 2012;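 active = every replicate reaching a set inhibition limit, whatever the replicate mean, cut at about 25% in these data; inconclusive = mean inhibition reaches that limit but some replicates miss it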;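 note: 0% = plate neutral control median and 100% = total signal loss; the record names both 10 and 1 µM as test concentration; the first replicate is given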
Target sequence (P42568 whole entry, looked up): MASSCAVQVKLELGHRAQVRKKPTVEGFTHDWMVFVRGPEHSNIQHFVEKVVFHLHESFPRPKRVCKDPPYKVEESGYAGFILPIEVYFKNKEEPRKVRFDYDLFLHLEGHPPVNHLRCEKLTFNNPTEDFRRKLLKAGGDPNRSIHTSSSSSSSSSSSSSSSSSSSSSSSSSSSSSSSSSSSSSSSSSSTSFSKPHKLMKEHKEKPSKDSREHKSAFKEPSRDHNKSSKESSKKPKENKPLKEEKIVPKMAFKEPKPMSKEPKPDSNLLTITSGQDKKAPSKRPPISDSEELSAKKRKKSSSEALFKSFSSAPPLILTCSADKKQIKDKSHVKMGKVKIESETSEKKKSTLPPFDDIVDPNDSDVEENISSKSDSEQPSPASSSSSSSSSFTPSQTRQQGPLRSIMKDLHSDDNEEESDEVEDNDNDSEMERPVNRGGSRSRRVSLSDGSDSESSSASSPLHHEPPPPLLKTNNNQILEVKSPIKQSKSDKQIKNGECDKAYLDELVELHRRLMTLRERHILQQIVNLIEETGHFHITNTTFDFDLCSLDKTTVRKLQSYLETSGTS
FGF22 binding = binders of human FGF22 protein, primary screen, FGF22 synaptogenesis inhibitor project, biophysical, thermal shift, single point; recombinant FGF22 thermal shift, SYPRO orange fluorescence; percent of sucrose octasulfate shift, DMSO zero; calls only at 9.99 µM; 340,000 compounds, 1.5% hits; AID 651658, 2012;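 active = melting point raised past a set limit in the mean and every replicate; inconclusive = no clear call; three in four hits are not shown here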
Target sequence (Q9HCT0 whole entry, looked up): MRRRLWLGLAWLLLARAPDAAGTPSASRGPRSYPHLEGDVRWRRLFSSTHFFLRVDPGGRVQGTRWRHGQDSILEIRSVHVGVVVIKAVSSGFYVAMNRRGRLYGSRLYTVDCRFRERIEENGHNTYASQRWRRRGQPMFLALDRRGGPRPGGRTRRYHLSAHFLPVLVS
rRNA inh HTS OD600 = second read-out of rRNA inh HTS, no call of its own (marks repeat the call); OD600 change, %; measured here: OD600 growth;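 optical density of the mix in the first replicate; 0 = DMSO median and -100 = no signal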
rRNA inh HTS RFP = second read-out of rRNA inh HTS, no call of its own (marks repeat the call); RFP signal change, %; measured here: RFP humanized mutant strains;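 first replicate; 0 = DMSO median and -100 = no signal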
Starred values were filed as active, the others as inactive; i = inactive; ? = inconclusive; · = not tested or not shown. These rows are one share of the data; count on the stated rates, not on these rows.

mol | ALR H2O2 inh | Calb FLC | RanGTP-Imp inh | rRNA inh HTS | rRNA inh HTS OD600 | rRNA inh HTS RFP | T cruzi inh | Beta apoptosis | AF4-AF9 inh | FGF22 binding
C=CCOc1ccc(C2C(C(=O)c3ccco3)=C(O)C(=O)N2CCCN(CC)CC)cc1 (stereo not drawn) | 8 | 1 | -3.1 | · | · | · | -8 | -2 | · | ·
CCOc1ccc(NC(=O)c2ccc3c(c2)N(Cc2ccc(F)cc2)C(=O)CS3=O)cc1 (stereo not drawn) | -7 | 13 | 4.9 | -2 | -8 | 8.3 | 7 | 1 | 3.8 | ·
O=C(NCCCN1CCOCC1)c1ccco1 | -2 | -1 | -0.1 | · | · | · | 0 | -3 | · | ·
COc1cc(-c2n[nH]c(=S)n2-c2ccccc2C(F)(F)F)cc(OC)c1OC | 39 | -4 | 6.4 | 0 | -2 | -1.0 | -19 | 10 | 0.9 | i
CCCC(=O)Nc1ccccc1NC(=O)c1ccc(OC(C)=O)cc1 | 2 | 0 | -5.2 | 7 | -7 | -2.1 | -6 | -7 | -0.1 | i
COc1cc(C(=O)NNC(=S)NC(=O)/C=C/c2ccccc2)cc(OC)c1OC | 30 | 15 | 2.7 | -15* | 6.5* | -5.0* | -33 | · | 1.6 | i
COc1cccc(C(=O)Nc2cc3c(cc2Cl)OCCCO3)c1 | -7 | 0 | 3.3 | · | · | · | 2 | -1 | · | ·
Cc1ccc(-c2ccc(/C=N/NC(N)=S)o2)cc1 | -6 | -3 | 0.4 | -9 | 4 | 0.8 | 13 | -7 | 8.9 | i
COC(=O)Cc1ccc(NC(=S)N2CCC(Cc3ccccc3)CC2)cc1 | 4 | 1 | 1.2 | -11 | -15 | -15 | 7 | -5 | 1.3 | i
COc1cccc(COC(=O)C2CC(=O)N(Cc3ccc(C)cc3)C2)c1OC (stereo not drawn) | -8 | 9 | -1.8 | -3 | -6 | 2.4 | -8 | -7 | -2.0 | i
COc1cc(/C=C2/C(=N)N3C=CSC3=NC2=O)ccc1OCCCOc1ccccc1C | -17 | 9 | 1.9 | -5 | -2 | 6.3 | -2 | 18 | -8.0 | i
NCCCCc1cn(CC(=O)N2CCNCC2)nn1 | -4 | 4 | 0.6 | 10 | 6 | 3.8 | -3 | -5 | 0.5 | i
O=C(COC(=O)C1CC2C=CC1C2)Nc1ccccc1[N+](=O)[O-] (stereo not drawn) | 39 | · | · | -17 | -22 | 1.2 | · | -4 | 8.8 | i
Cc1c(C(=O)N(C)c2ccccc2)oc2c1C(O)CC(C)(C)C2 (stereo not drawn) | 3 | -4 | -3.5 | -16 | -16 | -2.4 | 2 | · | 1.9 | i
CCOC(=O)C1(Cc2cccc(F)c2)CCN(Cc2cnn(CC)c2)CC1 | 5 | -27 | 0.0 | 10 | 1 | -0.9 | 3 | -2 | -7.7 | i
Cc1cccc(OCCCn2ccnc2)c1 | -1 | -29 | -4.7 | -3 | -10 | -7.3 | 20 | -1 | 0.6 | i
Cc1cccc(NC(=O)COC(=O)c2ccc(C)c(S(=O)(=O)N3CCCCC3)c2)c1 | · | · | · | -16 | -29 | -5.5 | · | 1 | 0.6 | i
NC(=O)C1CCCN(Cc2ccc3ccccc3c2)C1 (stereo not drawn) | -8 | 5 | 2.6 | 8 | 8 | 1.2 | 23 | 0 | -3.8 | i
CCN(CC)CCCNC1=C(Cl)C(=O)c2ccccc2C1=O | -406 | -10 | -4.3 | -10 | -13 | 11 | 79* | 98* | 5.4 | i
Cc1cc(C)c2cc(CNC3CCCC3)c(Cl)nc2c1 | · | -5 | ? | 3 | -1 | -0.2 | 24 | 9 | 0.0 | i
Cc1cccc(C(=O)N[C@H](C(=O)Nc2ncc(C)s2)C(C)C)c1 | 10 | -20 | -3.2 | 2 | 1 | 7.0 | 0 | 76* | -1.9 | i
CCC(C)c1ccccc1N1CC(C(=O)Nc2ccc(N3CCOCC3)cc2)CC1=O (stereo not drawn) | 54 | · | · | 5 | 6 | 0.1 | · | -1 | ? | i
O=C(COc1ccccc1)NNC(=O)c1cc2ccccc2oc1=O | -3 | -20 | -1.5 | · | · | · | -17 | -4 | · | ·
Cc1ccc(N(C)C(=O)CCS(=O)(=O)c2cc3c(cc2Cl)NC(=O)CO3)cc1 | 6 | -3 | -3.3 | -3 | -4 | -0.5 | -5 | 4 | -20 | i
CCOC(=O)Cc1csc(NC(=O)C(C)(C)CC)n1 | -3 | -15 | 2.3 | 8 | -2 | 0.9 | 9 | -5 | · | ·
Cc1cc(NC(=O)CSCCc2ccncc2)no1 | 64 | -2 | 1.9 | 7 | 5 | 0.8 | -9 | · | 6.4 | i
COc1cc(OC)cc(C(=O)NC(C(=O)NNC(=O)c2ccc(C)cc2)C(C)C)c1 (stereo not drawn) | · | · | · | 1 | 11 | 1.3 | · | -2 | 1.2 | i
O=C(c1cccc(F)c1)N1CCN(Cc2ccco2)CC1 | -3 | -7 | 0.9 | · | · | · | -1 | -3 | · | ·
O=c1cc(CNC2CCCCC2)c2ccccc2[nH]1 | -36 | 0 | -0.2 | · | · | · | -11 | -4 | · | ·
Cc1nc(Cl)cc(CS(=O)(=O)c2ccc(Cl)cc2)n1 | -3 | 2 | 0.2 | 14 | 11 | -0.5 | -18 | -1 | 0.0 | i
CCc1nc(SCC(=O)NC2CC2)c2c(C)c(C)sc2n1 | 6 | 10 | -3.7 | 4 | 4 | 2.8 | 10 | · | 0.3 | i
COC(=O)C1(O)CC(C(C)C)=NN1C(=O)c1ccc(Cl)cc1 (stereo not drawn) | 33 | -19 | 0.4 | · | · | · | -5 | -7 | · | ·
Cc1c(C)c(C)c(S(=O)(=O)N2CCNCC2)c(C)c1C | 4 | 25 | 0.3 | -11 | -20 | -2.5 | -14 | -26 | 2.3 | i
COC(=O)CC1C(=O)NCCN1Cc1cn(-c2ccc(C)cc2)nc1-c1cccc(C)c1 (stereo not drawn) | -26 | -7 | 3.5 | -12 | -22 | -1.0 | -1 | 2 | 3.1 | i
OC(Cn1nnc2ccccc21)Cn1c(C(F)(F)F)nc2ccccc21 (stereo not drawn) | -11 | -4 | -1.7 | · | · | · | -4 | 2 | · | ·
COc1ccccc1CNC(=O)Cn1cc2c(n1)CCCC2 | -5 | 2 | 0.9 | 5 | 5 | 0.1 | -1 | -6 | -1.3 | ·
COc1cccc(CNC(=O)c2ccc(OCC(=O)N3CCOCC3)c(OC)c2)c1 | -4 | 6 | 6.8 | 19 | 16 | 0.4 | -10 | · | -2.1 | i
CC(=O)Nc1ccc(NC(=O)c2ccc(C3SCC(=O)N3CCc3ccccc3)cc2)cc1 (stereo not drawn) | 0 | 32 | 4.7 | · | · | · | 11 | -1 | · | ·
CCCCC(=O)NC(c1ccc(Cl)cc1Cl)c1ccc2cccnc2c1O (stereo not drawn) | -6 | 96* | -1.1 | 7 | 2 | 4.9 | 64* | 85* | -1.4 | i
CN(Cc1ccc(Cl)c(Cl)c1)C(=O)CN1C(=O)NC2(CCCC2)C1=O | -12 | 0 | -1.6 | -9 | -10 | -0.4 | -4 | -5 | 1.2 | i
CC1CCc2c(sc(NC(=O)c3ccc(Cn4cc(Br)cn4)o3)c2C(N)=O)C1 (stereo not drawn) | -10 | 4 | 3.8 | · | · | · | 40 | -4 | · | ·
CCOc1ccccc1C(c1c(O)nc(SC)[nH]c1=O)c1c(O)nc(SC)[nH]c1=O | 2 | 6 | 3.4 | 23 | 18 | -0.2 | -19 | · | -2.6 | i
O=c1[nH]c2ccccc2n1Cc1ccccc1 | -4 | -3 | 0.2 | 7 | 4 | 2.4 | 3 | -4 | -1.2 | i
O=C(CS(=O)(=O)c1ccccc1)Nc1nccs1 | · | -3 | 1.7 | 3 | 4 | -3.8 | -9 | 1 | -1.8 | i
CCC(=O)N(CC(=O)Nc1sc(C)c(C)c1C(N)=O)Cc1ccc(F)cc1 | 6 | 3 | 0.2 | 10 | 6 | -3.1 | -2 | -6 | -4.3 | i
CCOc1ccc(Br)cc1S(=O)(=O)Nc1ccc(C(=O)OC(C)C(=O)N(C)c2ccccc2)cc1 (stereo not drawn) | -5 | -1 | ? | · | · | · | 16 | · | -7.3 | i
O=C(NCc1ccccn1)c1cccc(NS(=O)(=O)c2ccc(Br)cc2)c1 | 11 | · | · | -12 | -15 | -1.4 | · | -1 | -2.3 | i
COc1ccc(NC(=S)N2CCC(NC(=O)c3cccc(F)c3)CC2)cc1 | 1 | -6 | 1.9 | 6 | -1 | -1.9 | 1 | 6 | 1.1 | i
Cc1ccc(S(=O)(=O)N2CN(CC3CCCO3)c3nc4ccccc4nc32)cc1 (stereo not drawn) | 14 | -6 | 0.8 | 1 | -12 | 17 | -5 | 0 | 5.2 | i
CCCN(CCC)CCCNC(=O)CC(C(=O)N1CCc2ccccc21)n1ccnc1 (stereo not drawn) | -2 | 0 | -1.2 | · | · | · | -10 | -5 | · | ·
Nn1c(COc2ccc(Cl)cc2)nc2ccccc2c1=O | · | -14 | 4.8 | 3 | 5 | -2.1 | 4 | -5 | 1.4 | i
O=C(NCc1ccco1)C(=O)NCC1OCCN1S(=O)(=O)c1ccc(F)cc1 (stereo not drawn) | 0 | -6 | 4.2 | 4 | 8 | 4.3 | -40 | -1 | -167 | i
COc1cc2c(cc1OC)CN(C(=O)c1cc(S(=O)(=O)N3CCOCC3)ccc1C)CC2 | -3 | -2 | · | 6 | 0 | -0.3 | 3 | -4 | 0.3 | i
O=C(/C=C/c1ccccc1)OCN1C(=O)c2ccccc2C1=O | 1 | -2 | -2.6 | 6 | 2 | -1.1 | -3 | -8 | -2.4 | i
CCOc1ccc(C2c3[nH]c4ccccc4c3CCN2C(=O)Cn2cncn2)cc1 (stereo not drawn) | 2 | 43 | 3.3 | -20 | -37 | 4.5 | 0 | -8 | 7.3 | ·
N#Cc1ccc(OC(=O)Cc2ccsc2)cc1 | 25 | 34 | -0.1 | 7 | 9 | -0.8 | -17 | -1 | -1.3 | i
COC(=O)c1sccc1NC(=S)N1CCCC(C)C1 (stereo not drawn) | 71 | 3 | 2.8 | · | · | · | -4 | -5 | · | ·
